# Cruzain inh noDet: blocks cruzain activity in detergent-free assay. P25779. purified cruzain, Z-FR-AMC fluorescence, no detergent. Potency, µM, for inactives: max response, negative = inhibition, most hits filed as inhibitors. 2.3% of 200,000 active. AID 1476; active = well fitted curve in the direction sought with a large enough effect; inconclusive = small, poorly fitted or top-dose-only effect, or another doubt; inactive = no such curve, though single readings can be large; an effect the other way counts as inactive or inconclusive;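 also: plate controls were enzyme without inhibitor for no effect and buffer without enzyme for full effect; nearly all actives have a fitted effect of over 40% in size; top concentration of the series not given in the record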
# Target sequence (P25779 123-467 limits assumed): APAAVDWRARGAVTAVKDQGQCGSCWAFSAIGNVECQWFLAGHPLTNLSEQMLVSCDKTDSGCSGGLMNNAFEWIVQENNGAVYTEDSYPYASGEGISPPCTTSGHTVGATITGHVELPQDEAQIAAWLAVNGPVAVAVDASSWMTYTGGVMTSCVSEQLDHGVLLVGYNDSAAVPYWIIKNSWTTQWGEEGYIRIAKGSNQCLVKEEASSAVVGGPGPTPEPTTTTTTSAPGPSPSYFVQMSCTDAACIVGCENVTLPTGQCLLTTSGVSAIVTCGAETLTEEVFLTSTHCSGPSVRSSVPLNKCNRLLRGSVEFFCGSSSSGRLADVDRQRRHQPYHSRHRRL
#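 Purified cruzain at 1.5 nM, pre-incubated 15 min with compound at room temperature in 100 mM sodium acetate pH 5.5, 5 mM DTT, 0.00005% Triton X-100. Reaction started with 2 uM Z-FR-AMC; AMC fluorescence increase over 60 s gives rate.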
# Cruzain Triton: inhibitors of Trypanosoma cruzi cruzain with detergent. 0.43% of 200,000 active. Potency, µM, without a hit: max response, negative = inhibition, hits mostly inhibitors. P25779. purified cruzain, Z-FR-AMC fluorescence, 0.01% Triton. AID 1478; active = well fitted curve in the direction sought with a large enough effect; inconclusive = small, poorly fitted or top-dose-only effect, or another doubt; inactive = no such curve, though single readings can be large; an effect the other way counts as inactive or inconclusive;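 also: plate controls were neutral wells for no effect and buffer without enzyme for full effect; nearly all actives have a fitted effect of over 40% in size; top concentration of the series not given in the record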
#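 Cysteine protease activity tested under reducing, mildly acidic conditions (100 mM sodium acetate pH 5.5, 5 mM DTT) plus 0.01% Triton X-100. Cruzain 1.5 nM; substrate Z-FR-AMC 2 uM; 15 min compound preincubation at room temperature.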
# RE007 growth inh: less growth of the S. pombe RE007 Vpr strain; AID 651644; Potency, µM (titrated, usually from 92.2 µM), for inactives: at the highest dose activity change, negative = less growth; 0.21% of 360,000 active; S. pombe RE007 Vpr strain, BacTiter-Glo ATP luminescence, 24 h; control for the full effect not named in the record; active = well fitted falling curve with a large enough effect; inconclusive = small, poorly fitted or top-dose-only effect; inactive = no such curve, though single readings can be large or run the other way;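 also: % is scaled to controls: 0 for no effect and ±100 for the full control effect; nearly all actives have a fitted effect of over 50% in size; the assay follows cell death caused by Vpr and the record does not say whether a fall means rescue or toxicity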
#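 Fission yeast strain RE007, carrying one chromosomally integrated HIV-1 vpr copy, was seeded at OD 0.01 in PMG+AL medium with 23 nL pinned compound. After 24 h at 30 °C and 99% humidity, viability was read by BacTiter-Glo luminescence.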
# Lassa entry inh: blocks Lassa virus binding to or entry into cells; Lassa virus pseudotype entry inhibition, cell reporter; control for the full effect not named in the record; Potency, µM (highest dose often 37.9 µM), for inactives: top-dose activity change, negative = inhibition, usual class: inhibitors; 1.2% of 300,000 active; active means well fitted inhibition curve with a large enough effect; inconclusive means small, poorly fitted or top-dose-only effect, or effect the other way; inactive means flat fitted curve, though single readings scatter; tested in HEK293 cells; also: % is scaled to controls: 0 for no effect and ±100 for the full control effect; nearly all actives have a fitted effect of over 50% in size; luciferase read-out
# SARS PLP yeast: blocks SARS-CoV papain-like protease in a yeast assay | S. cerevisiae expressing SARS-CoV PLpro, growth rescue; control for the full effect not named in the record | Potency, µM (titrated, usually from 32.9 µM), inactives show at the top dose activity, positive = growth rescue | 0.19% of 330,000 active; also: 0% is about no effect; nearly all actives have a fitted effect of over 55% in size; growth read by luminescence after 48 h
# Marburg entry inh: blocks Marburg virus binding to or entry into cells | Potency, µM (highest dose often 37.8 µM), inactives show top-dose activity change, negative = inhibition, hits mostly inhibitors | Marburg virus pseudotyped entry inhibition, cell reporter; control for the full effect not named in the record; about a third of the inactives were read at about 46 µM | 1.8% of 300,000 active; active = well fitted inhibition curve with a large enough effect; inconclusive = small, poorly fitted or top-dose-only effect, or effect the other way; inactive = flat fitted curve, though single readings scatter; tested in HEK293 cells; about a fifth of its hits are not listed in these tables; also: % is scaled to controls: 0 for no effect and ±100 for the full control effect; luciferase read-out
# NS1 inh: inhibitors of influenza NS1 protein function; S. cerevisiae slowed by influenza A NS1, growth recovery by OD600; Potency, µM (highest dose often 46.1 µM), without a hit: at the top dose activity, positive = more growth; 0.4% of 270,000 active; also: actives are rising curves; nearly all actives have a fitted effect of over 50% in size
#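 Compounds were scored for reversing the slow growth caused by influenza A NS1 in S. cerevisiae, measured by optical density at 600 nm. Assay medium contained 2% galactose at pH 6.0; NS1-free yeast of the same strain were the positive control.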
# StopGo reporter: lowers the luciferase signal of an FMDV 2A StopGo reporter; human cells with a luciferase reporter of 2A StopGo recoding; control for the full effect not named in the record; Potency, µM (top dose mostly 57.9 µM), inactives show at the top dose signal change, negative = less light; 1.2% of 410,000 active; active = well fitted falling curve with a large enough effect; inconclusive = small, poorly fitted or top-dose-only effect; inactive = no such curve, though single readings can be large or run the other way; tested in HEK293T cells; also: % is scaled to controls: 0 for no effect and ±100 for the full control effect; nearly all actives have a fitted effect of over 45% in size; luciferase light after 4 h
# An asterisk follows results filed as active; ? = inconclusive; . = no result given; & = joins results of further samples; [ ] = dose if it differs, or a comment. Unless noted, calls follow the shape of the dose curve; as a rule, active means well fitted rising curve with a large enough effect; inconclusive means small, poorly fitted or top-dose-only effect; inactive means no such curve, though single readings can be large or run the other way. Potency is read from the fitted curve at half-maximal effect.
SMILES,Cruzain inh noDet,Cruzain Triton,RE007 growth inh,Lassa entry inh,SARS PLP yeast,Marburg entry inh,NS1 inh,StopGo reporter
CCN(CC)c1ccc(C(=S)NC2CCCCC2)cc1,.,.,-15%,-4%,0%,?,-8%,8%
Cc1oc2c(c1C(=O)NC(Cc1c[nH]c3ccccc13)C(=O)O)CCCC2 (configuration not stated),?,-1.8%,18%,8%,-1%,-21%,?,5%
COc1cc(NC(=O)CCS(=O)(=O)c2ccc3c(c2)oc(=O)n3C)cc(OC)c1OC,.,.,7%,25%[46.1 µM],-1%,13%[46.1 µM],10%,-6%
O=C(CNC(=O)c1ccco1)N/N=C/c1ccc(O)c([N+](=O)[O-])c1,-5%,-6.8%,3%,-6%[46.1 µM],?,19%[46.1 µM],-1%,-9%
CCCN1CCC(NC(=O)Nc2ccc([N+](=O)[O-])cc2)CC1,.,.,5%,21%[46.1 µM],0%,?,1%,-15%
O=C(Nc1ccc(Cl)cc1F)C1CC1,4%,1.8%,-13%,4%,1%,24%,14%,9%
CN(C)c1ccnc(-n2cccc2/C=N/O)c1C#N,.,.,12%,-1%[46.1 µM],0%,4%[46.1 µM],-2%,-11%
CC(=O)/C=N/Nc1ccccc1,-8%,-7.2%,8%,5%,-1%,-16%,6%,-2%
O=C(c1ccccc1)N1CCN(C(=O)c2ccncc2)CC1,.,.,21%,6%,.,?,.,19%
O=C(CN1CCN(c2ncc(C(F)(F)F)cc2Cl)CC1)N1CCN(c2ncc(C(F)(F)F)cc2Cl)CC1,?,-1.7%,-5%,-29%,-16%,?,-6%,?
CN1CCN(S(=O)(=O)c2ccc(Cl)nc2)CC1,-18%,-0.4%,11%,4%,-11%,?,0%,-7%
CCCC[C@@H]1CNC(=O)C(=O)N1CCc1cc(C(F)(F)F)cc(C(F)(F)F)c1,.,.,12%,.,-5%,.,9%,-16%
Cc1nc2c(C#N)c[nH]n2c(=O)c1Cc1ccccc1,-5%,0.1%,13%,4%,-1%,3%,8%,.
CC(Oc1ccc(Br)cc1)C(=O)NCCCN1CCCC1=O (configuration not stated),.,.,3%,18%,2%,-5%,.,3%
Cc1ccc(S(=O)Cc2ccc(C(=O)NCc3ccc(OC(C)C)cc3)o2)cc1 (configuration not stated),23%,-3.2%,.,?,.,.,.,-16%
Cc1csc(NC(=O)C2CCCCC2)n1,.,.,4%,?,-1%,?,-1%,72%[activator]
O=C(O)Cc1ccc2oc(-c3cccnc3)nc2c1,.,.,-4%,-17%,1%,?,.,5%
Cc1sc2nc(SCC(=O)O)[nH]c(=O)c2c1C,.,.,7%,6%[46.1 µM],-1%,-1%[46.1 µM],.,-6%
C=CCOc1cccc(C(=O)Nc2ncn[nH]2)c1,.,.,8%,.,6%,.,5%,22%
CC(C)NC(=O)c1onc(CSc2ccc(C(C)C)cc2)c1C(=O)O,20%,-4.6%,-6%,.,-14%,.,-4%,?
Cc1cccc(Cn2c(C)c(CNC3CCCCCC3)c(C(=O)O)c2C)c1,4%,-0.6%,.,-9%[46.1 µM],.,-12%[46.1 µM],.,-9%
Cc1nc(CN2CCN(C(=O)CCc3nnc(Cc4c[nH]c5ccccc45)o3)CC2)cs1,.,.,-2%,-23%[46.1 µM],0%,10%[46.1 µM],1%,-7%
COc1ccc(Br)cc1S(=O)(=O)N1CCCc2ccccc21,.,.,11%,.,4%,.,-29%,6%
COc1ccccc1-n1nc(C(=O)O)c2ccccc2c1=O,2%,6.4%,-14%,9%,-2%,16%,6%,.
CCOC(=O)CNc1c(N2CCN(c3ccccn3)CC2)c(=O)c1=O,3%,2.0%,6%,.,-2%,.,2%,-14%

# Further compounds
SMILES,Cruzain inh noDet,Cruzain Triton,RE007 growth inh,Lassa entry inh,SARS PLP yeast,Marburg entry inh,NS1 inh,StopGo reporter
CCOc1cc(NC(=S)NCCOC)c(OCC)cc1NC(=O)c1cccs1,.,.,-9%,?,-1%,-3%[46.1 µM],1%,-3%
C=CCn1c(C)csc1=Nc1ccc(C(C)=O)cc1,.,.,2%,-18%,-1%,-12%[46.1 µM],1%,43%[activator]
Cc1c(C(=O)N2CCCCCC2)c(S(=O)(=O)Nc2cccc(C#N)c2)c(C)n1C,9%,0.0%,.,8%[46.1 µM],.,.,.,38%[activator]
N#Cc1cc2c(nc1SCC(O)CS(=O)(=O)Cc1ccc(Cl)cc1)CCCC2 (configuration not stated),2%,-4.5%,-6%,-33%,3%,-14%,8%,.
COc1ccc(OCc2cc(C(=O)N3CCOCC3)no2)c(Cl)c1,.,.,12%,-20%[46.1 µM],-2%,?,-8%,15%
Cc1ncc(CN2CCC(C(=O)Nc3ccc(-n4cccn4)cc3)CC2)s1,.,.,-2%,-4%,16%,5%,9%,-13%
Cc1c(N=Cc2nc3ccccc3[nH]2)c(=O)n(-c2ccccc2)n1C,-10%,-3.9%,-6%,-4%,4%,1%,-14%,29%
O=C(CCN1C(=O)C2C3C=CC(C3)C2C1=O)NC1CCCCC1 (configuration not stated),.,.,8%,.,1%,.,-17%,-4%
COc1ccc(S(=O)(=O)Nc2c(C)nc3nc[nH]n3c2=O)cc1,1%,0.9%,73%,1%,0%,-2%&6%[46.1 µM],.,-6%&-13%
CCc1ccc(C(=O)N2CCN(c3ccc(NC(=O)c4ccco4)cc3)CC2)cc1,.,.,2%,?,-7%,18%,5%,?
CCn1c2ccccc2c2cc(NC(=O)C(C)Oc3ccccc3)ccc21 (configuration not stated),?,-0.3%,-10%,-6%,-6%,2%,14%,-2%
CCCC(C(=O)NCCc1ccc(S(N)(=O)=O)cc1)c1ccccc1 (configuration not stated),.,.,-3%,3%[46.1 µM],2%,0%[46.1 µM],-6%,7%
COc1ccc(OC)c(CNC(=O)Cn2nc(C)c3c(C)n(-c4ccc(C)cc4)nc3c2=O)c1,.,.,-5%,.,-3%,.,-2%,?
Cc1ccc(S(=O)(=O)N(CCC(=O)O)c2ccccc2)cc1,-5%,2.5%,9%,1%,23%,15%,-11%,-1%
COc1ccccc1NC(=O)c1csc2c1CCC(C)C2 (configuration not stated),.,.,-27%,.,-1%,.,-2%,44%[activator]
Cc1sc(NC(=O)c2cc(-c3ccccc3)nc3ccccc23)c(C(N)=O)c1C,-10%,-4.4%,1%,-15%,-44%,?,16%,-25%
COC1=C(C)C(=O)C2=C(C1=O)C1C3CC4=C(C(=O)C(OC)=C(C)C4=O)C(CNC(=O)C(C)=O)N3C(C#N)C(C2)N1C (configuration not stated),.,.,-8%,?,.,.,.,?
CCOC(=O)c1c(C)n(C)c2cc(Br)c(C(=O)OC)cc12,?,-2.9%,-8%,-4%,-7%,?,-18%,-18%
COc1ccc(/C=C(\C#N)C(=O)c2c(C)[nH]c3ccccc23)cc1OC,?,-7.8%,3%,-4%,-6%,2%,-10%,-18%
O=C(NNC1=C(C(=O)C(F)(F)F)CCC1)c1cccc(O)c1,-4%,-7.3%,27%,?,14µM*,0%,7%,-22%
O=c1[nH]c(CN2CCc3ccccc3C2)nc2ccccc12,-11%,-2.8%,4%,22%,0%,24%,-1%,.
CC(Oc1ccc(Cl)cc1Cl)C(=O)NCCCN(C)C (configuration not stated),-9%,-3.3%,9%,0%,4%,-1%,-1%,.
Cc1c(NC(=O)COC(=O)c2ccc(Br)o2)c(=O)n(-c2ccccc2)n1C,.,.,-5%,1%,2%,5%,-1%,7%
CCOc1ccc(NC(=O)COC(=O)C2C3CC4OC(=O)C2C4C3)cc1 (configuration not stated),.,.,1%,11%[46.1 µM],1%,-21%[46.1 µM],5%,22%
CN(c1ccccc1)S(=O)(=O)CS(=O)(=O)N(C)c1ccccc1,.,.,-2%,-6%,.,-4%,.,-22%

# (cont.)
SMILES,Cruzain inh noDet,Cruzain Triton,RE007 growth inh,Lassa entry inh,SARS PLP yeast,Marburg entry inh,NS1 inh,StopGo reporter
COC(=O)C1CCN(S(=O)(=O)c2ccc(NC(C)=O)cc2)CC1,-3%,2.8%,-16%,0%,12%[6.58 µM],?,6%,-22%
CCOC(=O)c1sc(NC(=O)c2ccc(S(=O)(=O)N(CC)CC)cc2)nc1C,1%,6.1%,-17%,0%,3%,-27%,1%,-2%
O=C(CCn1c(=O)c2cccn2c2cccnc21)NCc1ccc(F)cc1,3%,-0.3%,.,8%[46.1 µM],.,.,.,3%
Cc1ccc(Nc2nnc(SCc3nc4ccccc4c(=O)[nH]3)s2)cc1,.,.,?,.,1%,.,4%,-6%
CCc1ccccc1S(=O)(=O)Cc1ccc(C(=O)NCCc2ccc(C)cc2)o1,5%,-6.2%,.,?,.,?,.,-4%
Cc1c(C(=O)Nc2cccc([N+](=O)[O-])c2)csc1-c1ccccc1,-10%,-1.5%,1%,?,-3%,?,15%,-1%
COc1ccc(CNc2c(C(=O)O)cnc3c2cnn3C)cc1,.,.,6%,8%,0%,-1%,0%,4%
CCc1ccc(N=C2NC(=O)/C(=C/c3cc(Br)c(OCC(=O)O)c(OC)c3)S2)cc1,.,.,8%,-12%[46.1 µM],0%,-6%[46.1 µM],19%,29%
COc1ccc(C(=O)Nc2ccnn2C2CCN(Cc3ccccn3)CC2)cc1,.,.,6%,.,-5%,.,-1%,1%
CC1CCN(C(=O)CSc2nc3c(c(=O)n2C)SCC3)CC1,.,.,-3%,-16%,-4%,14%,11%,11%
COc1c(C)cc(Br)cc1C(=O)NC(=S)NCc1ccco1,.,.,2%,-8%,-1%,1%,4%,-12%
Cc1nn(-c2ccccc2)c2ncc(C(=O)c3cc(Cl)ccc3O)cc12,?,-6.3%,?,-17%,-26%,-10%,12%,0%
CCOC(CNC(=O)c1cc(C)nn1-c1ccccc1)OCC,-1%,-4.2%,4%,-10%,2%,-19%,10%,-1%
O=C(Nc1ccc(F)cc1)Nc1ccc2c(c1)OCO2,.,.,4%,-7%[46.1 µM],-2%,-2%[46.1 µM],3%,13%
O=C(Nc1cccc(-c2nnc(-c3ccccc3)o2)c1)C1CCCCC1,?,-5.1%,-9%,-6%,-5%,16%,0%,1%
Cc1ccc(S(=O)(=O)Nc2ccc(C(=O)N3CCOCC3)cc2)cc1,.,.,-9%,-7%,-3%,?,2%,14%
CN(C)S(=O)(=O)c1ccc(NC(=O)c2ccncc2)cc1,.,.,-11%,5%[46.1 µM],1%,14%[46.1 µM],1%,-11%

# Screening results (PubChem)
